# Screens (PubChem BioAssay)
# Polio RdRp inh: inhibitors of poliovirus RNA polymerase binding and polymerization; poliovirus polymerase elongation, fluorescence polarization; stronger effect = lower value; AID 588519; % elongation, % (compound at 16.7 µg/mL); 150,000 tested, 0.66% active; in the data active = % elongation below about 90%; note: some results filed as inactive read as strong as hits
# Target sequence (P03300 1749-2209 limits assumed): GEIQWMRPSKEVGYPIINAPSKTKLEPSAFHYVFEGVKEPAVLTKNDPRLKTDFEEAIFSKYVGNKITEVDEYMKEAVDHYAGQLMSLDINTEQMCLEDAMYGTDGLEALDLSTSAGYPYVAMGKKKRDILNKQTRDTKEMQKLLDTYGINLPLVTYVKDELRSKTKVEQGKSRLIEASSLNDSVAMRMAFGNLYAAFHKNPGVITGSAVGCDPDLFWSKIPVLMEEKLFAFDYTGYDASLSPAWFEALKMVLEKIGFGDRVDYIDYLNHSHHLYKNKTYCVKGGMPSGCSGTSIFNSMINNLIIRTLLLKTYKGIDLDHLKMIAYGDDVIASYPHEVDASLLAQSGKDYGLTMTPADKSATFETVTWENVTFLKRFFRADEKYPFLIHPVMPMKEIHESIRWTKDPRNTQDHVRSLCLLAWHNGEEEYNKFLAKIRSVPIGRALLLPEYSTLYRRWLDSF
# Polio RdRp inh intensity: also measured in Polio RdRp inh; calls as there; % elongation; measured here: total intensity read-out; formula for this scale not given here;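 total fluorescence in place of polarization; lower means less elongation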
# * marks the source's active call; other numbers are inactive results. Some of the compounds tested; the hit share may differ from the screen's.
# A first look, two compounds:
SMILES,Polio RdRp inh,Polio RdRp inh intensity
COc1ccc(CNC(=O)CN2C(=O)CSc3ccc(S(=O)(=O)N4CCCC4)cc32)cc1,120,122
COc1ccc(CNC(=O)c2ccc3c(c2)nc2n3CCC(C)C2)c(OC)c1 (stereo unspecified),107,112

# The listing, from the first entry:
SMILES,Polio RdRp inh,Polio RdRp inh intensity
COc1ccc(CNC(=O)CN2C(=O)CSc3ccc(S(=O)(=O)N4CCCC4)cc32)cc1,120,122
COc1ccc(CNC(=O)c2ccc3c(c2)nc2n3CCC(C)C2)c(OC)c1 (stereo unspecified),107,112
CCOC(=O)N1CCc2c(sc3c2c(=O)n(-c2ccc(CC)cc2)c(=O)n3CC(=O)Nc2ccc(C)cc2)C1,105,109
CCOc1ccc(C(=O)c2cnc3ccc(Cl)cc3c2S(=O)(=O)c2ccc(C)cc2)cc1,106,109
COc1ccc(-c2nc3ccccc3o2)cc1NC(=O)c1ccc(-c2ccc(C)c(Cl)c2)o1,97,97
Cc1ccc(-c2nn(CC(=O)Nc3cccc(C(F)(F)F)c3)c(=O)c3ccccc23)cc1,116,111
Cc1ccc(Nc2nc3ccccc3c3nncn23)c(Cl)c1,100,97
COc1cccc(C(=O)CN2CCN(S(=O)(=O)c3ccc(Cl)cc3)CC2)c1,108,109
CC(CNC(=O)c1ccc2c(c1)nc1n2CCCCC1)c1ccccc1 (stereo unspecified),108,113
O=C(CCNS(=O)(=O)c1ccc2c(c1)CCN2C(=O)C1CC1)Nc1ccc(F)cc1F,107,108
Cc1ccc(C)c(N2CCN(C(=O)c3nn(C)c4c3CS(=O)(=O)c3ccccc3-4)CC2)c1,112,106
COc1ccc(NC(=O)c2cc(S(=O)(=O)N3CCCCC3)c[nH]2)cc1Cl,108,112
COc1ccc(N2CCN(C(=O)CNS(=O)(=O)c3ccc(Br)s3)CC2)cc1,98,99
CCn1c(=O)c2sccc2n2c(CCCC(=O)N3CCN(c4ccc(F)cc4)CC3)nnc12,102,103
Cc1ccc(-c2nc3c(c(SCC(=O)Nc4ccccc4Cl)n2)Cc2c(CO)cnc(C)c2O3)cc1,109,111
CCOC(=O)c1c(S(=O)(=O)N2CCCC(C(=O)Nc3cc(C)ccn3)C2)c(C)n(C)c1C (stereo unspecified),110,111
CCC(=O)N1CCc2cc(Br)cc(S(=O)(=O)N3CCCC(C(=O)Nc4ccc(OC)c(Cl)c4)C3)c21 (stereo unspecified),103,104
Cc1cccc(NC(=O)C2CCN(S(=O)(=O)c3ccc4c(c3)CCCC(=O)N4)CC2)c1,113,110
Cc1ccc(Oc2c(C(F)(F)F)oc3c(CN4CCC(C)CC4)c(O)ccc3c2=O)cc1,104,108
Cc1cccc(NC(=O)CN2C(=O)COc3ccc(S(=O)(=O)Nc4ccccc4)cc32)c1C,103,99
Cc1ccc(C(=O)CSc2ncc3c(n2)-c2ccccc2N(Cc2ccc(Cl)cc2)S3(=O)=O)cc1,103,103
O=C(CN1CCN(C2CCCCC2)C(=O)C1=O)Nc1ccc(Cl)cc1,112,111
O=C(Cn1cnc2onc(-c3ccc(F)cc3)c2c1=O)Nc1cccc(C(F)(F)F)c1,96,91
O=C(CCc1cn(Cc2ccc(F)cc2)c2ccccc12)NCCc1ccc(Cl)cc1,112,111
CCCCN(Cc1ccccc1)S(=O)(=O)c1ccc2c(c1)CCN2C(=O)C1CCC1,114,113
COc1ccccc1CNC(=O)c1cnc2sc(N3CCCCC3)nn2c1=O,100,99
CCn1c(=N)n(CCOc2ccc(Br)cc2)c2ccccc21,101,97
O=C(CN1CCCN(Cc2ccccc2F)S1(=O)=O)Nc1ccc(F)c(Cl)c1,109,110
CCc1cc(=O)oc2cc(C)c3c(-c4ccc(F)cc4)coc3c12,108,111
O=C(c1ccco1)N1CCN(c2nc3ccc(Cl)cc3s2)CC1,108,109
COc1c(Cl)cc(Cl)cc1/C=C(\C#N)c1nc2ccccc2[nH]1,102,101
O=C(Nc1cc2c(cc1C(=O)c1ccccc1Cl)OCCO2)c1ccc(Br)cc1,102,107
COc1ccc(-n2ncc3c2ncn2nc(COc4ccc(Cl)cc4)nc32)cc1,121,110
COC(=O)c1sccc1S(=O)(=O)N1CCN(c2ccc(C)cc2C)CC1,108,106
COc1ccc(-c2cn3c(C)c(C(=O)Nc4cc(C)cc(C)c4)sc3n2)cc1,102,100
CCCn1c(=NC(=O)c2cc3ccccc3o2)c(C(=O)OCC)cc2c(=O)n3ccccc3nc21,107,111
Cc1ccc(-c2nc3ccccc3s2)cc1NC(=O)COc1ccccc1,106,111
CC(=O)N1c2ccc(S(=O)(=O)NCc3ccccc3Cl)cc2CC1C (stereo unspecified),110,107
CCCN(C(=O)c1cc2c(=O)oc3ccccc3c2s1)c1ccc(CC)cc1,106,105
CC1CCc2c(sc(NC(=O)CCCOc3ccc(C(C)(C)C)cc3)c2C(N)=O)C1 (stereo unspecified),103,102
COc1ccc(C(c2ccc3cccnc3c2O)N2CCCC2)cc1 (stereo unspecified),100,97
CCn1c(C(=O)NCc2ccccc2)cc2sc(Cl)cc21,106,107
Cc1cc(C)n(-c2nc(C)c(C)c(=O)n2CC(=O)Nc2cccc([N+](=O)[O-])c2)n1,101,102
CCOC(=O)c1ccc(NC(=O)CCc2c(C)nc3c(-c4ccc(F)cc4)c(C)nn3c2C)cc1,104,105
CN(Cc1ccccc1)c1nc2c(S(=O)(=O)c3cccc(Cl)c3)nnn2c2ccsc12,107,109
Cc1cc(C)c(NC(=O)CSc2cn(CC(=O)N3CCOCC3)c3ccccc23)c(C)c1,117,104
COc1ccc(C2c3c(oc4ccc(F)cc4c3=O)C(=O)N2Cc2ccc3c(c2)OCO3)cc1 (stereo unspecified),98,101
COc1ccc(/C=C(/C#N)c2nc(-c3ccc(-c4ccccc4)cc3)cs2)cc1OC,98,105
CCCOC(=O)c1cccc(NC(=O)c2c(-c3ccccc3Cl)noc2C)c1,102,106
Cc1nnc(C)n1-c1ccc(C(=O)Nc2cccc(Br)c2)cc1,114,112

# Next part
SMILES,Polio RdRp inh,Polio RdRp inh intensity
Cc1cccc(C)c1NC(=O)CCSCCc1ccccn1,110,108
Cc1ccc2c(=O)cc(C(=O)Nc3ccc(S(=O)(=O)N4CCCC(C)C4)cc3)oc2c1C (stereo unspecified),108,111
Cc1ccc(CCNC(=O)c2ccc3c(c2)N(Cc2ccc(F)cc2)CCS3)cc1,99,102
Cc1cc(C)cc(OCc2cc(=O)n3c4c(sc3n2)CCCC4)c1,78*,79*
CCOC(=O)c1cnc2ccc(OC(F)(F)F)cc2c1Nc1ccccc1C(=O)O,103,106
CCCCN(CC)C(=O)CCn1c(=O)c2cccn2c2cccnc21,111,99
Cc1cccc(-n2c(=O)c3c(c4cc(C)ccc4n3C)n(CC(=O)Nc3ccccc3Cl)c2=O)c1,104,107
O=C(CSc1n[nH]c(-c2ccccc2)n1)NCCCc1ccccc1,114,119
Cc1sc2ncn(CC(=O)N3CCN(c4ccc(Cl)cc4)CC3)c(=O)c2c1S(=O)(=O)N1CCN(c2ncccn2)CC1,109,110
CCCNC(=O)Cn1nc(C)c2c(C)n(-c3ccccc3)nc2c1=O,105,108
COc1cccc(C2=C(C(C)=O)Sc3nnc(C4CCCCC4)n3N2C(C)=O)c1,110,115
Cc1ccc(CNC(=O)CSc2ncc3c(n2)-c2ccc(Cl)cc2N(Cc2ccccc2)S3(=O)=O)cc1,109,112
CCOc1ccc(N(C)C(=O)C2CCN(S(=O)(=O)c3ccc4c(c3)CCCN4C(C)=O)CC2)cc1,102,111
COc1ccc(-n2nc(C(=O)N3CCCCC3C)c3c4ccccc4n(C)c3c2=O)cc1Cl (stereo unspecified),105,106
CCc1cccc(N2C(=O)CSC23C(=O)N(Cc2ccccc2F)c2ccccc23)c1 (stereo unspecified),109,106
CCOc1ccc2c(c1)c(=O)c(C(=O)c1ccccc1)cn2Cc1ccccc1F,107,106
COc1ccccc1NC(=O)CN1C(=O)C(C)(C)c2ccccc21,113,115
CCOc1ccccc1N(CC(=O)N1CCc2ccccc2C1)S(=O)(=O)c1ccccc1,105,108
O=C1SC(Nc2ccc(Cl)cc2)C(=O)N1Cc1ccccc1 (stereo unspecified),107,111
COc1ccc(S(=O)(=O)N2CCC(Oc3cccc(C(F)(F)F)c3)CC2)cc1OC,107,109
CC1CCCCN1Cc1c(O)ccc2c(=O)c(-c3cccc(Cl)c3)c(C(F)(F)F)oc12 (stereo unspecified),104,107
O=c1c2oc3ccccc3c2n(Cc2ccccc2F)c(=O)n1Cc1ccc2c(c1)OCO2,104,110
CSc1nc(-c2ccccc2Cl)nc2c1Cc1c(CO)cnc(C)c1O2,102,101
Cc1cccc(C)c1OCc1cc(=O)n2c3c(sc2n1)CCCC3,113,113
Cc1ccc2oc(C(=O)Nc3ccc(S(=O)(=O)N4CCCCC4C)cc3)cc(=O)c2c1 (stereo unspecified),105,109
CCC(=O)Nc1ccc(C)cc1-c1nc2ccccc2n(Cc2ccccc2)c1=O,108,115
O=C(NCCc1ccccc1Cl)c1sc2ncccc2c1-n1cccc1,111,102
CC1CCN(c2nc3c(S(=O)(=O)c4ccccc4)nnn3c3ccc(Cl)cc23)CC1,107,108
CCOc1cc2[nH]c(=O)n(Cc3ccc(C(=O)N4CCN(c5cccc(Cl)c5)CC4)cc3)c(=O)c2cc1OCC,101,105
COC(=O)c1ccc(-c2nc(-c3ccc(OC)c(OC)c3)no2)cc1,120,118

# Part of the list above in order of formula weight, high to low.
SMILES,Polio RdRp inh,Polio RdRp inh intensity
CCOc1cc2[nH]c(=O)n(Cc3ccc(C(=O)N4CCN(c5cccc(Cl)c5)CC4)cc3)c(=O)c2cc1OCC,101,105
Cc1ccc(CNC(=O)CSc2ncc3c(n2)-c2ccc(Cl)cc2N(Cc2ccccc2)S3(=O)=O)cc1,109,112
CCOc1ccc(N(C)C(=O)C2CCN(S(=O)(=O)c3ccc4c(c3)CCCN4C(C)=O)CC2)cc1,102,111
CC1CCCCN1Cc1c(O)ccc2c(=O)c(-c3cccc(Cl)c3)c(C(F)(F)F)oc12 (stereo unspecified),104,107
CCOc1ccccc1N(CC(=O)N1CCc2ccccc2C1)S(=O)(=O)c1ccccc1,105,108
COc1ccc(S(=O)(=O)N2CCC(Oc3cccc(C(F)(F)F)c3)CC2)cc1OC,107,109
O=c1c2oc3ccccc3c2n(Cc2ccccc2F)c(=O)n1Cc1ccc2c(c1)OCO2,104,110
CC1CCN(c2nc3c(S(=O)(=O)c4ccccc4)nnn3c3ccc(Cl)cc23)CC1,107,108
Cc1ccc2oc(C(=O)Nc3ccc(S(=O)(=O)N4CCCCC4C)cc3)cc(=O)c2c1 (stereo unspecified),105,109
CCc1cccc(N2C(=O)CSC23C(=O)N(Cc2ccccc2F)c2ccccc23)c1 (stereo unspecified),109,106
CCC(=O)Nc1ccc(C)cc1-c1nc2ccccc2n(Cc2ccccc2)c1=O,108,115
CSc1nc(-c2ccccc2Cl)nc2c1Cc1c(CO)cnc(C)c1O2,102,101
O=C(NCCc1ccccc1Cl)c1sc2ncccc2c1-n1cccc1,111,102
Cc1cccc(C)c1OCc1cc(=O)n2c3c(sc2n1)CCCC3,113,113
O=C1SC(Nc2ccc(Cl)cc2)C(=O)N1Cc1ccccc1 (stereo unspecified),107,111
COc1ccccc1NC(=O)CN1C(=O)C(C)(C)c2ccccc21,113,115

# Continued:
SMILES,Polio RdRp inh,Polio RdRp inh intensity
CCOc1ccc(NC(=O)CSc2nc3ccsc3c(=O)n2CCCCCC(=O)O)cc1,106,100
O=C(Nc1nnc2n1CCS2)c1ccccc1,105,108
CCOC(=O)c1cc2c(=O)n3ccccc3nc2n(CC2CCCO2)c1=NC(=O)c1cc(C)cc(C)c1 (stereo unspecified),106,110
Cc1ccc(NC(=O)Cn2c(=O)n(Cc3ccccc3)c(=O)c3c2c2cc(C)ccc2n3C)cc1,108,101
CCC(=O)N1CCc2cc(S(=O)(=O)NCCC(=O)NCc3ccccc3Cl)ccc21,106,106
O=C(Nc1cc(Cl)ccc1Cl)c1cc2nc(-c3ccc4c(c3)OCO4)cc(C(F)(F)F)n2n1,108,112
CC(=O)c1ccc(S(=O)(=O)Nc2cccc(-c3ccc(N4CCCC4)nn3)c2)cc1,104,107
Cc1cccc(-n2c3c(cc(-c4nc(-c5ccc(Cl)cc5)cs4)c2=O)C(=O)CC(C)(C)C3)c1,108,108
Cc1cc(C(=O)NCCc2ccc(Cl)cc2)c2c(C)nn(-c3cccc(F)c3)c2n1,109,115
CCc1ccc(C(=O)c2cn(CC(=O)NCc3ccc(C)cc3)c3nc(C)ccc3c2=O)cc1,102,97
COc1ccc(C2NC(=O)N(C)C3=C2C(=O)N(c2ccc(C(=O)O)cc2)C3)cc1 (stereo unspecified),100,101
COc1ccccc1Nc1nc(-c2ccccc2)c(CC(=O)O)s1,110,111
CC1(C)N=C(SCc2ccc(F)cc2)c2ccccc2N1,113,111
CCCCN(C)CCNC(=O)c1cc(=O)[nH]c2ccc(S(=O)(=O)N3CCCCCC3)cc12,109,112
Cc1cc(Br)ccc1NC(=O)C1(S(=O)(=O)c2ccc(Cl)cc2)CC1,111,114
COc1cccc(CNC(=O)c2ccc(Cn3c(SCc4ccccc4)nc4cccnc43)cc2)c1,105,109
COc1cccc(C(=O)N(Cc2cccnc2)c2nc3c(OC)ccc(C)c3s2)c1OC,104,106
COc1ccc(CCNC(=O)c2ccc(Cn3c(=O)c4ccccc4n(Cc4cccc(F)c4)c3=O)cc2)cc1OC,104,106
O=C(Nc1ccc2oc(-c3ccc(Br)cc3)nc2c1)c1cc2ccccc2o1,106,114
Cc1noc(Cn2c(=O)c3ccccc3n(CC(=O)Nc3ccc(Cl)cc3)c2=O)n1,112,107
Cc1ccc(-c2noc(CNC(=O)c3ccc(C)c(Cl)c3)n2)cc1,109,111
O=C(O)CCC(=O)Nc1sc2c(c1C(=O)Nc1ccccc1)CCCCC2,102,100
Cc1c(NC(=O)Cc2ccccc2)cccc1-c1nc2cccnc2s1,108,114
CCOc1ccc(C2C(C(=O)Nc3ccccc3)=C(C)Nc3nc(-c4ccccc4Cl)nn32)cc1OC (stereo unspecified),105,105
CCCCNC(=O)CSc1nc2ccccc2nc1Cc1ccc(C)cc1,108,112
